High-throughput results deposited in PubChem by Broad Institute.
FGF22 binding = FGF22 (human) thermal shift binding; Q9HCT0; recombinant FGF22 thermal shift, SYPRO orange fluorescence; percent of sucrose octasulfate shift, DMSO zero; calls only at 9.99 µM; 340,000 tested, 1.5% active; AID 651658;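 active = melting point raised past a set limit in the mean and every replicate; three in four hits are not shown here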
Target sequence (Q9HCT0 whole entry, looked up): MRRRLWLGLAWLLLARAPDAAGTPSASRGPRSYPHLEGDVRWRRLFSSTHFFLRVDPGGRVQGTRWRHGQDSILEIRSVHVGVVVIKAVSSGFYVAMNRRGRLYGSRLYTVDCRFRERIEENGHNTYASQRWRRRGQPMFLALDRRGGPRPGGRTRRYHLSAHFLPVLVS
AF4-AF9 inh = blocks AF4 peptide binding to human AF9. P42568. AlphaScreen, biotin-AF4 peptide binding to FLAG-AF9. inhibition, % at 10 µM. 350,000 tested, 0.47% active. AID 651704;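 active = every replicate reaching a set inhibition limit, whatever the replicate mean, cut at about 25% in these data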;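 note: 0% = plate neutral control median and 100% = total signal loss; the record names both 10 and 1 µM as test concentration; the first replicate is given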
Target sequence (P42568 whole entry, looked up): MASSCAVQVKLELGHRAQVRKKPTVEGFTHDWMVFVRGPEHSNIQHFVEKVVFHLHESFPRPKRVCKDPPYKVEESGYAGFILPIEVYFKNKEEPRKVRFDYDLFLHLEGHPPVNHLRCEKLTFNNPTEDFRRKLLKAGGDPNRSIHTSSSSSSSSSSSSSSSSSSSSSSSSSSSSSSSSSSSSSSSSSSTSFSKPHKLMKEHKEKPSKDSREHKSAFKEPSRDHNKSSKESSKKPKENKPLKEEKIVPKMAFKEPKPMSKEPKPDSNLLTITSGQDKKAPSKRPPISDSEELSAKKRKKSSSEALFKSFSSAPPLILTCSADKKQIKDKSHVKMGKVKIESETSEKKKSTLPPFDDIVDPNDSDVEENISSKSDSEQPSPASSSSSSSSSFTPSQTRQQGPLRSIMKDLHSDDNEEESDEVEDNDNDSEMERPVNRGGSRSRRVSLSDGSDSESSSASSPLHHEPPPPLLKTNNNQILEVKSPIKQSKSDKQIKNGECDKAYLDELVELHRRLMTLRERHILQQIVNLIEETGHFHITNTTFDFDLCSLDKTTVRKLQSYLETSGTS
* hit, by the source's call; & = joins results of further samples.

Screening O=C(NC1CCCCC1)[C@@H]1N[C@@H]2c3ccc(-c4cccc(F)c4)c(=O)n3C[C@@H]2[C@H]1CO returned FGF22 binding inactive and AF4-AF9 inh 1.6.
COc1ccc(C#Cc2ccc3c(c2)O[C@H](CN(C)C(=O)Nc2cccc(OC)c2)[C@H](C)CN([C@H](C)CO)S3(=O)=O)cc1 was read as FGF22 binding inactive and AF4-AF9 inh -2.2.
For C[C@@H]1CN([C@H](C)CO)C(=O)c2cc(NS(=O)(=O)c3cccs3)ccc2O[C@@H](C)CCCCO[C@H]1CN(C)S(=O)(=O)c1ccc(Cl)cc1 the results were FGF22 binding inactive and AF4-AF9 inh -2.4.
`O=C(Nc1ccccc1)N1C[C@H]2[C@@H](c3ccccc31)[C@@H](CO)N2Cc1ccccc1Cl` gave FGF22 binding inactive and AF4-AF9 inh -1.4.
For CCC(=O)N1C[C@H](O)COC[C@H]2O[C@@H](CC(=O)NCC3CCCCC3)CC[C@@H]21 the results were FGF22 binding inactive and AF4-AF9 inh -2.2.
For COc1ccc(S(=O)(=O)N[C@H]2C=C[C@H](CC(=O)NCc3ccccc3F)O[C@@H]2CO)cc1 the results were FGF22 binding inactive and AF4-AF9 inh -2.6.
`O=C(C[C@H]1C[C@@H]2c3cc(NC(=O)C4CCC4)ccc3O[C@@H]2[C@H](CO)O1)NCC(F)(F)F` gave FGF22 binding inactive and AF4-AF9 inh 0.2.
`COc1ccc(NC(=O)N(C)C[C@H]2Oc3ccc(NS(=O)(=O)c4ccc(Cl)cc4)cc3CC(=O)N([C@@H](C)CO)C[C@H]2C)cc1` gave FGF22 binding inactive and AF4-AF9 inh -1.0.
O=C(C[C@@H]1C[C@@H]2c3cc(NC(=O)Nc4ccccc4F)ccc3O[C@@H]2[C@H](CO)O1)NCC(F)(F)F was read as FGF22 binding inactive and AF4-AF9 inh -2.1.
`OC[C@H]1[C@H](c2ccc(C#CC3(O)CCCC3)cc2)[C@H]2CN(Cc3ccccc3F)CCCCN21` gave FGF22 binding inactive and AF4-AF9 inh -1.3.
Screening C[C@H](CO)N1C[C@H](C)[C@H](CN(C)Cc2ccc(-c3ccccc3)cc2)Oc2ccc(NC(=O)Nc3ccc(C(F)(F)F)cc3)cc2CC1=O returned FGF22 binding inactive and AF4-AF9 inh -0.4.
`CO[C@H](CN(C)S(=O)(=O)c1cccc(Cl)c1)[C@@H](C)CN(C(=O)Nc1ccccc1F)[C@H](C)CO` gave FGF22 binding inactive and AF4-AF9 inh -0.5.
For C[C@@H]1CN([C@@H](C)CO)S(=O)(=O)c2ccc(C#CC(C)(C)O)cc2O[C@H]1CN(C)CC1CCCC1 the results were FGF22 binding inactive and AF4-AF9 inh 1.7.
COc1ccc2c3c(n(C)c2c1)[C@H](CO)N(C(=O)Nc1ccc(F)cc1)CC31CN(C(=O)c2cccnc2)C1 was read as FGF22 binding inactive and AF4-AF9 inh 0.8.
COc1ccc(CNC(=O)C[C@@H]2C[C@@H]3c4cc(NC(=O)CN(C)C)ccc4O[C@@H]3[C@H](CO)O2)cc1 was read as FGF22 binding inactive and AF4-AF9 inh -0.5.
For C[C@@H]1CN([C@@H](C)CO)C(=O)c2cc(NS(=O)(=O)c3cn(C)cn3)ccc2O[C@H]1CN(C)Cc1ccc(-c2ccccc2)cc1 the results were FGF22 binding inactive and AF4-AF9 inh -5.0.
`O=C(CN1CCOCC1)NCC[C@@H]1CC[C@H](NC(=O)c2ccc3c(c2)OCO3)[C@H](CO)O1` gave FGF22 binding inactive and AF4-AF9 inh 1.3.
CCNC(=O)[C@H]1[C@H](CO)[C@H]2Cn3c(ccc(-c4ccccc4)c3=O)[C@@H]1N2C(=O)C1CC1 was read as FGF22 binding inactive and AF4-AF9 inh -0.7.
O=C(Nc1cc(F)ccc1F)N[C@H]1CC[C@H](CCNC(=O)c2cnccn2)O[C@H]1CO was read as FGF22 binding inactive and AF4-AF9 inh -3.9.
C[C@@H]1CN([C@@H](C)CO)C(=O)c2cc(NS(=O)(=O)c3ccccc3)ccc2O[C@@H](C)CCCCO[C@@H]1CN(C)S(=O)(=O)c1cn(C)cn1 was read as FGF22 binding inactive and AF4-AF9 inh 5.1.

2 compounds drawn at random from those above:
Screening C[C@H](CO)N1C[C@H](C)[C@H](CN(C)Cc2ccc(-c3ccccc3)cc2)Oc2ccc(NC(=O)Nc3ccc(C(F)(F)F)cc3)cc2CC1=O returned FGF22 binding inactive and AF4-AF9 inh -0.4.
For CCC(=O)N1C[C@H](O)COC[C@H]2O[C@@H](CC(=O)NCC3CCCCC3)CC[C@@H]21 the results were FGF22 binding inactive and AF4-AF9 inh -2.2.

More structures:
`C[C@@H]1CCCCO[C@H](CN(C)C)[C@@H](C)CN([C@H](C)CO)C(=O)c2cc(NS(=O)(=O)c3cn(C)cn3)ccc2O1` gave FGF22 binding inactive and AF4-AF9 inh -4.4.
`CO[C@H]1CN(C)C(=O)c2cc(NS(C)(=O)=O)ccc2OC[C@H](C)N(Cc2cncnc2)C[C@@H]1C` gave FGF22 binding inactive and AF4-AF9 inh -2.9.
Screening Cc1noc(C)c1NC(=O)Nc1cccc2c1O[C@@H](CN(C)Cc1ccccc1)[C@H](C)CN([C@@H](C)CO)C2=O returned FGF22 binding inactive and AF4-AF9 inh -3.0.
Screening COc1ccc2c3c(n(C)c2c1)[C@H](CO)N(C(=O)C1CC1)CC31CN(C)C1 returned FGF22 binding inactive and AF4-AF9 inh 3.7.
Screening CCCC#Cc1cnc2c(c1)C(=O)N([C@H](C)CO)C[C@H](C)[C@@H](CN(C)C(=O)CN1CCOCC1)O2 returned FGF22 binding inactive and AF4-AF9 inh -2.8.
COc1ccc(NC(=O)Nc2ccc3c(c2)C(=O)N([C@H](C)CO)C[C@H](C)[C@H](CN(C)Cc2ccncc2)OCCCC[C@@H](C)O3)cc1 was read as FGF22 binding inactive and AF4-AF9 inh 0.2.
`C[C@H](CO)N1C[C@H](C)[C@H](CN(C)Cc2ccc3c(c2)OCO3)OCCCC[C@H](C)Oc2ccc(N(C)C)cc2C1=O` gave FGF22 binding inactive and AF4-AF9 inh 7.6&20.1.
`CNC[C@H]1OCCCC[C@H](C)Oc2ccc(N(C)C)cc2C(=O)N([C@@H](C)CO)C[C@@H]1C` gave FGF22 binding inactive and AF4-AF9 inh -7.0.
For C[C@@H]1CN([C@@H](C)CO)S(=O)(=O)c2ccc(Br)cc2O[C@@H]1CN(C)S(=O)(=O)c1ccc(F)cc1 the results were FGF22 binding inactive and AF4-AF9 inh 0.8&2.2.
`C[C@H](CO)N1C[C@H](C)[C@H](CN(C)Cc2ccccc2)OCCCC[C@H](C)Oc2ccc(N(C)C)cc2C1=O` gave FGF22 binding inactive and AF4-AF9 inh 5.8.
Screening C/C=C/c1ccc2c(c1)O[C@@H](CN(C)C(=O)NCCC)[C@@H](C)CN([C@H](C)CO)S2(=O)=O returned FGF22 binding inactive and AF4-AF9 inh -1.6.
`COc1ccc(CN(C)C[C@@H]2OCCCC[C@H](C)Oc3ccc(NS(=O)(=O)c4ccccc4)cc3C(=O)N([C@H](C)CO)C[C@@H]2C)cc1` gave FGF22 binding inactive and AF4-AF9 inh 1.2.
Cc1noc(C)c1S(=O)(=O)Nc1cccc2c1O[C@@H](CN(C)S(=O)(=O)c1ccccc1)[C@@H](C)CN([C@@H](C)CO)C2=O was read as FGF22 binding inactive and AF4-AF9 inh -14.1.
Screening C[C@H](CO)N1C[C@H](C)[C@H](CN(C)Cc2ccc(C(=O)Nc3ccccc3N)cc2)Oc2ccc(NC(=O)C3CC3)cc2CC1=O returned FGF22 binding inactive and AF4-AF9 inh 1.4.
Screening CNC(=O)C[C@H]1CC[C@H]2[C@@H](COC[C@@H](O)CN2Cc2ccc(C(F)(F)F)cc2)O1 returned FGF22 binding inactive and AF4-AF9 inh -5.7.
Screening COc1ccc(NC(=O)N(C)C[C@@H]2Oc3c(NC(=O)C4CCOCC4)cccc3C(=O)N([C@@H](C)CO)C[C@@H]2C)cc1 returned FGF22 binding inactive and AF4-AF9 inh -10.5.
For COc1ccccc1CNC(=O)C[C@H]1CC[C@@H]2[C@H](COC[C@@H](O)CN2C(=O)Nc2ccccc2)O1 the results were FGF22 binding inactive and AF4-AF9 inh -0.9.
For COCC#Cc1cnc2c(c1)C(=O)N([C@H](C)CO)C[C@@H](C)[C@@H](CN(C)Cc1ccc3c(c1)OCO3)O2 the results were FGF22 binding inactive and AF4-AF9 inh -2.1.
COC(=O)C[C@@H]1CC[C@@H]2[C@H](COC[C@H](O)CN2CCC(F)(F)F)O1 was read as FGF22 binding inactive and AF4-AF9 inh 0.3.
O=C(C[C@@H]1C=C[C@@H](NC(=O)C2CCOCC2)[C@H](CO)O1)Nc1ccc(-c2ccccc2)cc1 was read as FGF22 binding inactive and AF4-AF9 inh 0.4.

The last five entries of the part before open the next one.
Screening COc1ccc(NC(=O)N(C)C[C@@H]2Oc3c(NC(=O)C4CCOCC4)cccc3C(=O)N([C@@H](C)CO)C[C@@H]2C)cc1 returned FGF22 binding inactive and AF4-AF9 inh -10.5.
For COc1ccccc1CNC(=O)C[C@H]1CC[C@@H]2[C@H](COC[C@@H](O)CN2C(=O)Nc2ccccc2)O1 the results were FGF22 binding inactive and AF4-AF9 inh -0.9.
For COCC#Cc1cnc2c(c1)C(=O)N([C@H](C)CO)C[C@@H](C)[C@@H](CN(C)Cc1ccc3c(c1)OCO3)O2 the results were FGF22 binding inactive and AF4-AF9 inh -2.1.
COC(=O)C[C@@H]1CC[C@@H]2[C@H](COC[C@H](O)CN2CCC(F)(F)F)O1 was read as FGF22 binding inactive and AF4-AF9 inh 0.3.
O=C(C[C@@H]1C=C[C@@H](NC(=O)C2CCOCC2)[C@H](CO)O1)Nc1ccc(-c2ccccc2)cc1 was read as FGF22 binding inactive and AF4-AF9 inh 0.4.
`O=C(C[C@@H]1CC[C@H]2[C@@H](COC[C@@H](O)CN2CCc2ccccc2)O1)NCc1ccccc1` gave FGF22 binding inactive and AF4-AF9 inh -1.5.
`N#C[C@H]1[C@H](c2ccccc2)[C@H](CO)N1C(=O)c1cc(Cl)cc(Cl)c1` gave FGF22 binding inactive and AF4-AF9 inh 0.6.
Screening O=C(C[C@H]1CC[C@@H](NC(=O)c2cccnc2)[C@H](CO)O1)NCc1ccc(Cl)c(Cl)c1 returned FGF22 binding inactive and AF4-AF9 inh 0.0.
Screening COc1ccc(CN(C)C[C@H]2Oc3ccc(NS(=O)(=O)c4ccccc4)cc3C(=O)N([C@@H](C)CO)C[C@H]2C)cc1 returned FGF22 binding inactive and AF4-AF9 inh -5.5.
`O=C(C[C@@H]1CC[C@@H]2[C@H](COC[C@@H](O)CN2C(=O)Nc2cccc(F)c2)O1)NCCCN1CCOCC1` gave FGF22 binding inactive and AF4-AF9 inh 2.3.
For O=C(Nc1ccc(F)cc1)N1CC(=O)N2[C@H](CO)[C@H](c3ccc(-c4cccc(F)c4)cc3)[C@@H]2C1 the results were FGF22 binding inactive and AF4-AF9 inh -6.4.
`C[C@H]1CN([C@@H](C)CO)C(=O)c2cc(-c3ccc(C#N)cc3)cnc2O[C@@H]1CN(C)C(=O)c1cccnc1` gave FGF22 binding inactive and AF4-AF9 inh 3.5.
C[C@@H]1CCCCO[C@@H](CN(C)Cc2ccncc2)[C@@H](C)CN([C@H](C)CO)C(=O)c2cc(NS(=O)(=O)c3ccc(F)cc3)ccc2O1 was read as FGF22 binding inactive and AF4-AF9 inh -1.5.
For COCC#Cc1cnc2c(c1)C(=O)N([C@@H](C)CO)C[C@@H](C)[C@H](CN(C)C(=O)C1CCC1)O2 the results were FGF22 binding inactive and AF4-AF9 inh -3.5.
Cc1noc(C)c1NC(=O)Nc1ccc2c(c1)C(=O)N([C@@H](C)CO)C[C@H](C)[C@@H](CN(C)C(=O)Cc1ccccc1)OCCCC[C@H](C)O2 was read as FGF22 binding inactive and AF4-AF9 inh 0.8.
For COc1ccccc1-c1ccccc1[C@@H]1[C@H](C#N)N(C(=O)C2CCC2)[C@H]1CO the results were FGF22 binding inactive and AF4-AF9 inh -1.9.
`Cc1ccc(S(=O)(=O)N(C)C[C@H]2Oc3ncc(-c4ccccc4)cc3C(=O)N([C@H](C)CO)C[C@H]2C)cc1` gave FGF22 binding inactive and AF4-AF9 inh -8.9.
Screening CO[C@H]1CN(C)C(=O)c2cc(NS(=O)(=O)Cc3ccccc3)ccc2OC[C@@H](C)NC[C@@H]1C returned FGF22 binding inactive and AF4-AF9 inh 3.4.
O=C(N[C@@H]1CC[C@@H](CCn2cc(-c3ccccn3)nn2)O[C@@H]1CO)c1ccccc1 was read as FGF22 binding inactive and AF4-AF9 inh -1.6.
COCC(=O)N1CC2(CCN(Cc3nccs3)CC2)c2c(n(C)c3cc(OC)ccc23)[C@@H]1CO was read as FGF22 binding inactive and AF4-AF9 inh -2.0.
`C[C@H](CO)N1C[C@H](C)[C@@H](CN(C)S(C)(=O)=O)Oc2ccc(NC(=O)C3CCCCC3)cc2CC1=O` gave FGF22 binding inactive and AF4-AF9 inh 2.5.
For CCCNC(=O)[C@H]1[C@H](CO)[C@H]2Cn3c(ccc(-c4ccccc4F)c3=O)[C@H]2N1CCC the results were FGF22 binding inactive and AF4-AF9 inh -4.6.
For C[C@H](NC(=O)C[C@@H]1C=C[C@H](NC(=O)C2CC2)[C@H](CO)O1)c1ccccc1 the results were FGF22 binding inactive and AF4-AF9 inh 2.4.
For CNC[C@@H]1OCCCC[C@@H](C)Oc2ccc(NC(=O)Cc3ccccc3)cc2C(=O)N([C@H](C)CO)C[C@H]1C the results were FGF22 binding inactive and AF4-AF9 inh -9.2.
`CCNC(=O)C[C@H]1CC[C@@H]2[C@H](COc3ccc(NC(=O)Nc4cccc(Cl)c4)cc3C(=O)N2C)O1` gave FGF22 binding inactive and AF4-AF9 inh 2.4.
Screening C[C@@H]1CN([C@H](C)CO)C(=O)c2cccc(NS(=O)(=O)c3cccs3)c2O[C@@H]1CN(C)S(=O)(=O)c1ccc(Cl)cc1 returned FGF22 binding inactive and AF4-AF9 inh -0.4.

This is a subset; rates above refer to the full screens.
